NPYLR7 agonist = mosquito NPYLR7 agonism; HEK293T NPYLR7/Galpha15, GCaMP6s calcium fluorescence; activation, % at 10 µM; 270,000 compounds, 0.15% hits; in the data active = activation above about 40%;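 also: 0% = vehicle and 100% = reference agonist at the receptor; some compounds past the cut are filed as inactive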
NPYLR7 agonist max-min = also measured in NPYLR7 agonist; calls as there; activation, %; measured here: Max-Min RFU normalised activation; some inactives read as strong as hits;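 span of the calcium signal over five minutes; 0% = vehicle and 100% = native peptide agonist; compound fluorescence can raise it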
* hit, by the source's call. This is a subset; the hit share may differ from the screen's.

The line under a structure holds: NPYLR7 agonist max-min | NPYLR7 agonist
C=C1C(C)(C)[C@H]2CC[C@]1(C(=O)N1CCC(Cn3cc(CO)nn3)CC1)C2
  -5 | 0
COc1ccc(-c2cn(S(=O)(=O)Cc3ccccc3)nc2N)c(OC)c1
  -13 | -13
COc1ccc(Nc2c3c(nc4nncn24)CCC3)cc1OC
  3 | 4
COc1cccc(-n2cc(CN(C)Cc3cc(C(C)(C)C)n[nH]3)cn2)c1
  -1 | 1
CC(=O)N[C@@H]1C[C@H](Cc2ccccc2)O[C@H](c2cnc(-c3ccccn3)nc2)C1
  0 | 1
CCCC(C)(C)C(=O)N1CCC1(C)C(=O)NS(=O)(=O)c1ccc(C#N)cc1 (stereo not given)
  11 | 11
Cc1ccc(C)c(NC(=O)CC(=O)N(C)Cc2n[nH]c3c2CCC3)c1
  1 | 2
COC(=O)c1ccc(COC(CN2CCN(C(=O)NCCc3ccccc3F)CC2)c2cccc(OC)c2)cc1 (stereo not given)
  0 | -5
Cc1cc(-n2c(C)nc3ccccc3c2=O)ccc1NC(=O)c1cccc([N+](=O)[O-])c1C
  -7 | -6
CCOC(=O)c1ccoc1COC(=O)c1c(C)cc(=O)oc1C
  -6 | -1
Cc1nc(-c2coc3c(I)c(O)ccc3c2=O)cs1
  4 | 4
COc1ccc([C@@H]2C[C@H](NC(C)=O)C[C@H](Cc3ccccc3)O2)c(Cl)c1O
  6 | 5
COc1cc(NC(=O)Cn2cnc3c(sc4ncccc43)c2=O)cc(OC)c1
  4 | -2
CCC(C(=O)OC)n1cnc2c(nnn2-c2cccc(OC)c2)c1=O (stereo not given)
  2 | 2
COc1ccc2nc(C)cc(NCCc3ccc(S(N)(=O)=O)cc3)c2c1
  -3 | 2

For reference, 13 of the compounds above:
The line under a structure holds: NPYLR7 agonist max-min | NPYLR7 agonist
COc1ccc(Nc2c3c(nc4nncn24)CCC3)cc1OC
  3 | 4
COc1cccc(-n2cc(CN(C)Cc3cc(C(C)(C)C)n[nH]3)cn2)c1
  -1 | 1
CC(=O)N[C@@H]1C[C@H](Cc2ccccc2)O[C@H](c2cnc(-c3ccccn3)nc2)C1
  0 | 1
CCCC(C)(C)C(=O)N1CCC1(C)C(=O)NS(=O)(=O)c1ccc(C#N)cc1 (stereo not given)
  11 | 11
Cc1ccc(C)c(NC(=O)CC(=O)N(C)Cc2n[nH]c3c2CCC3)c1
  1 | 2
COC(=O)c1ccc(COC(CN2CCN(C(=O)NCCc3ccccc3F)CC2)c2cccc(OC)c2)cc1 (stereo not given)
  0 | -5
Cc1cc(-n2c(C)nc3ccccc3c2=O)ccc1NC(=O)c1cccc([N+](=O)[O-])c1C
  -7 | -6
CCOC(=O)c1ccoc1COC(=O)c1c(C)cc(=O)oc1C
  -6 | -1
Cc1nc(-c2coc3c(I)c(O)ccc3c2=O)cs1
  4 | 4
COc1ccc([C@@H]2C[C@H](NC(C)=O)C[C@H](Cc3ccccc3)O2)c(Cl)c1O
  6 | 5
COc1cc(NC(=O)Cn2cnc3c(sc4ncccc43)c2=O)cc(OC)c1
  4 | -2
CCC(C(=O)OC)n1cnc2c(nnn2-c2cccc(OC)c2)c1=O (stereo not given)
  2 | 2
COc1ccc2nc(C)cc(NCCc3ccc(S(N)(=O)=O)cc3)c2c1
  -3 | 2

(listing goes on)
The line under a structure holds: NPYLR7 agonist max-min | NPYLR7 agonist
Cc1ccc(N2CCCS2(=O)=O)cc1NC(=O)NCc1ccc(Cl)cc1
  -9 | -7
CCCN(Cc1cccc(OC)c1)Cc1ccc(C(O)(c2ccc(OC)cc2)c2ccc(OC)cc2)o1
  6 | -1
COc1cccc(CSc2nnc(CNC(=O)c3ccc(OC)cc3OC)n2-c2cc(Cl)ccc2C)c1
  -6 | -13
O=C(c1c2c(nc3ccccc13)CCC2)N1CCCC(C(F)(F)F)C1 (stereo not given)
  21 | -1
CC1CCC2(CC1)OCC(C(=O)NCc1ccc3c(c1)OCO3)N2C(=O)c1ccc(F)cc1 (stereo not given)
  -9 | -25
Cc1csc(NC(=O)CSc2ccc(-c3sc(-c4ccc(F)cc4)nc3C)nn2)n1
  3 | 13
Cn1cnnc1SCc1ccc(C(=O)N2C3CCC2CC(Oc2ccc(F)cc2F)C3)cc1 (stereo not given)
  8 | 1
CS(=O)(=O)NC1CCN(C(=O)c2ccccc2C2CCNC2)CC1 (stereo not given)
  -4 | -3
CN(C)C(=O)CN1CCN(C(=O)c2ccc3ccccc3c2O)CC1
  1 | 1
CCc1nc2ccc(C(=O)NC3CCN(C)CC3)cn2c1N(C)C(=O)c1cccc(OC)c1
  18 | 18
COC(=O)c1[nH]ncc1CN1CCC(Cc2ccc(F)cc2)CC1
  -9 | -1
CCOCCn1c(N(C)Cc2ccccc2)nc2c1c(=O)[nH]c(=O)n2C
  8 | 14
CC(c1ccccc1)n1nnnc1N1CC(c2ccncc2)C1 (stereo not given)
  -1 | 1
Cc1cccc(-n2ncc3c(=O)n4c(nc32)SCC4CC(=O)Nc2ccccn2)c1 (stereo not given)
  -1 | 0
COCCn1c(SCC(=O)Nc2nccs2)nc2c([nH]c3ccccc32)c1=O
  10 | 13
COCCSc1nnc(-c2cn(C)nc2OC)n1C
  9 | 8
O=C(NCc1nnnn1-c1ccc(F)cc1)c1ccccc1S(=O)(=O)C(F)F
  14 | 24
COCc1c(C(=O)Nc2ccccc2Br)oc2ccccc12
  8 | 2
Cc1ncc(C)c(N2CCn3nc(C(=O)Nc4ccccc4)cc3C2)n1
  1 | 5
CCOC(=O)C1(Cc2ccccc2F)CCCN(Cc2cn(CC)nc2C)C1 (stereo not given)
  3 | 6
CC1(C(=O)Nc2ccc3c(c2)OCO3)CCN1CCCc1ccccc1 (stereo not given)
  3 | 5
CCCc1nnc2sc(Cc3ccc(OC)cc3)nn12
  1 | 1
Nc1cc(-c2ccc(Cl)cc2)nn1-c1ccc(C(=O)NCC(c2ccccc2)c2ccccc2)cc1
  -9 | -5
CC(C)(NC(=O)c1cccs1)C(=O)NCCC(=O)Nc1ccc(F)cc1
  4 | 9
COc1ccc(C(=O)N2CCC3(CC2)OCc2cc(-c4cc(OC)c(OC)c(OC)c4)ccc2O3)cc1
  -18 | -12
Fc1ccccc1-c1nnc(SCc2nnc(-c3ccccc3)o2)n1C1CC1
  7 | 8
COc1ccc(OC)c(S(=O)(=O)NC(=O)C2(C)CCN2C(=O)CC2CC2)c1 (stereo not given)
  0 | 1
CCOC(=O)C(CC)Sc1nnc(NC(=O)CCc2ccccc2)s1 (stereo not given)
  -1 | -3
COc1ccc(N2C(=O)C3N=NN(Cc4cccc(C)c4)C3C2=O)cc1Cl (stereo not given)
  -9 | -1
CC(C)c1nc(C(C)c2n[nH]c(=O)c3ccccc23)n(-c2ccccn2)n1 (stereo not given)
  -5 | 4
CCN(C(=O)NCCS(=O)(=O)C(C)(C)C)C1CC1
  -3 | 1
CC(c1nnc(SCc2ccn(C)c(=O)c2)n1-c1ccc(F)cc1)N(C)C (stereo not given)
  1 | 3
CC1CC1NC(=O)c1cnc2sc(Cc3ccccc3)cn2c1=O (stereo not given)
  3 | 1
COCc1nc(NCC2(c3ccccc3)CCOCC2)c2cnn(C)c2n1
  14 | 18
Cc1ccc2nc(N=C(N)N)[nH]c2c1
  18 | 19
COc1ccccc1-c1cc(C(=O)NC(C)(C)C)n2nc(-c3ccc(Cl)cc3)cc2n1
  9 | 8
CCCCCc1ccc(C(=O)CSc2nnc(NC(=O)c3ccc(C(C)(C)C)cc3)s2)cc1
  23 | 3
Cn1nc(Sc2nnc(Nc3ccc(OC(F)(F)F)cc3)s2)c(=O)n(C)c1=O
  0 | 2
Cc1nnc(-c2cccc(NS(=O)(=O)NCc3ccccc3)c2)s1
  -4 | -2
Oc1oc(-c2ccccc2)nc1C=Nc1cccc(Cl)c1
  -8 | -5
CCOC(=O)c1nc2cc(Cl)c(Cl)cc2nc1N1CCN(C(=O)c2cc3ccccc3s2)CC1
  3 | 7
O=C1C2C(C(=O)N1/N=C/c1ccc([N+](=O)[O-])o1)C1C=CC2C12CC2 (stereo not given)
  0 | 2
CC(C)Cn1nc(C(=O)N2CCCC2)c2c1CCC(NCCc1cccs1)C2 (stereo not given)
  12 | 20
Cc1ccc2nc(NC(=O)CSc3nc(=O)n(CCN(C)C)c4c3CCC4)sc2c1
  -5 | -1
O=C(Nc1cccc(N2CCC(N3CCC4(C=Cc5ccccc54)CC3)CC2)c1)c1ccncc1
  9 | 28
O=C1CC(C(=O)N2CCCC2c2ccc3c(c2)OCO3)CN1Cc1ccc(Cl)cc1 (stereo not given)
  4 | 6
O=C(CCc1ccccc1)N1CCCC(N2CCN(c3cccc(C(F)(F)F)c3)CC2)C1 (stereo not given)
  27 | 14
CCOC(=O)C1(C)CCCCN1C(=O)c1cccnc1 (stereo not given)
  -5 | -5
OCCCn1cnc(-c2ccccc2)c1-c1ccc(O)c(Cl)c1
  7 | 8
Cc1cc(C(=O)NCCn2ncc3c(N4CCCCCC4)ncnc32)no1
  2 | 2
Cc1noc(Cl)c1CC(=O)NCc1ccc(Br)cc1
  -3 | 1
Cc1cccc(CN(Cc2ccco2)CC(O)C(C)C)c1 (stereo not given)
  7 | 0
CCOC(=O)C1CCN(C(=O)c2cccc(CSc3nc(Cl)cc(N(C)CCc4ccc(OC)c(OC)c4)n3)c2)CC1
  9 | 0
COCCN(Cc1ccccc1C)CC(O)Cc1ccccc1 (stereo not given)
  25 | 32
COc1ccc(Cc2[nH]n3c(=O)cc(C(C)C)nc3c2-c2ccccc2)cc1
  -25 | -19
Cc1ccc(-c2cncc(C(=O)N3CCCCC3)n2)c(-n2cccn2)c1
  5 | 10
CC(C)Cc1ccc(CC(=O)NC(C)CC(=O)c2ccco2)cc1 (stereo not given)
  1 | 11
CNC(=S)NNC(=O)Cn1ccc(C)n1
  -2 | 0
CCCCCN(C(=O)C1CCCCC1)C(CC)c1nc2ccccc2c(=O)n1-c1cccc(Cl)c1 (stereo not given)
  27 | 28
O=C(O)CCc1ccc(-c2ccc(F)cc2)[nH]1
  9 | 18

Next section:
The line under a structure holds: NPYLR7 agonist max-min | NPYLR7 agonist
O=C(Nc1cccc(-n2cccn2)c1)C1CCCN1S(=O)(=O)c1cccs1 (stereo not given)
  -13 | -7
COc1ccc2c(c1)C1(SCCN1C(=O)Nc1ccc(F)cc1)C(=O)N2Cc1cccc(C#N)c1 (stereo not given)
  11 | 6
FC(F)Sc1nc2ccccc2n1CN1CCN(c2ccc(C(F)(F)F)cn2)CC1
  8 | 2
Cc1ccc(-c2nc(CN3CCc4ccccc4C3)co2)c(C)c1
  -1 | 3
O=C(O)Cc1ccc(Oc2nc(Cc3ccc(F)cc3)ns2)cc1
  6 | 8
O=C1NC2(CCN(C(=O)c3ccc(F)cc3)CC2)Nc2ccc(Br)cc21
  3 | 0
CCCCCN1C(C)=CC(=C(C#N)C#N)C=C1C
  -3 | -1
O=C(Cn1c(=O)c(F)cn(C2CCCO2)c1=O)Nc1cccc2nsnc12 (stereo not given)
  8 | 3
CCN(CC)C(=O)Oc1ccc2c(ccn2Cc2cc(F)ccc2Br)c1-c1ccc(F)c(Cl)c1
  -1 | 9
CN(Cc1cccc(Cl)c1)C(=O)CCc1nc2sc3c(c2c(=O)[nH]1)CCC3
  0 | 3
CC(=O)Nc1cccc(NC(=O)CSc2nc(C3CCCC3)nc3c2c(=O)n(C)c(=O)n3C)c1
  -12 | -8
Cc1cc(S(=O)(=O)N(C)C)cc(NCC(=O)NC23CC4CC(CC(C4)C2)C3)c1C
  2 | -3
CCOC(=O)CNC(=O)N(CCCOC)CC(=O)N(CCc1c[nH]c2ccccc12)Cc1ccc(C)cc1
  4 | 9
CN(C)CCOC(=O)C12CC3(C)CC(C)(CC(C)(C3)C1)C2
  10 | 11
COc1c(Cl)cccc1NC(=O)NCC(C)(C)CC(C)O (stereo not given)
  -2 | -1
COc1ccc(C(=O)N(Cc2ccco2)Cc2cc(N)ccc2N(C)C)cc1
  1 | -4
Brc1ccc(Sc2ncnc3sccc23)cc1
  3 | 0
COc1ccc(N)cc1S(=O)(=O)N(C)C
  -8 | -7
Cc1nnc(NC(=O)CSc2ccc(-c3sc(-c4cccs4)nc3C)nn2)s1
  1 | 7
c1ccc2c(c1)ncn2CN1CCOCC1
  -11 | -5
COC(=O)c1sccc1NS(=O)(=O)c1ccc(F)cc1
  2 | 7
CC(C)Sc1nc2c(c(=O)[nH]c(=O)n2C)n1Cc1ccccc1
  -4 | 2
Cc1nc2sccn2c1CN1CCC2(CC1)C(=O)N(CC(C)C)C(=O)N2C
  -3 | 10
CC1CCC(N(C(=O)Nc2nccs2)C2CC2)CC1 (stereo not given)
  -6 | -5
CCN1CCN(Cc2ccc(NC(=O)C(C)Oc3ccccc3)cc2)CC1 (stereo not given)
  12 | 11
CC1CCCC(C)N1Cc1cn2cc(Cl)ccc2n1 (stereo not given)
  -6 | 0
CN(C)CC(C)(C)CNC(=O)c1cc2cc(Cl)ccc2[nH]1
  2 | 2
N#Cc1cn(OCc2ccccc2)c(=O)[nH]c1=O
  -13 | -11
CCOC(=O)N1CCN(C(=O)c2cc(-c3ccc(OC)cc3)nc3cc(-c4ccc(Cl)cc4)nn23)CC1
  5 | 3
COCCn1c(C)cc(C(=O)CSc2nnc3ccc4ccccc4n23)c1C
  -7 | -3
O=C1c2ccc(-c3nc4ccccc4c(=O)o3)cc2C(=O)N1Cc1cccnc1
  -17 | -13
COCCCNC(=O)CN1CN(c2ccccc2)C2(CCN(C(=O)C3CC3)CC2)C1=O
  10 | 5
CN(CCCNC(=O)c1ccc(-c2cc(-c3ccccc3)n[nH]2)cc1)c1ccccc1
  0 | -1
O=c1[nH]nc(N=Nc2c(O)[nH]c3ccc(F)cc23)c(=O)[nH]1
  6 | 2
O=C1C2CC3CC1CC(O)(C3)C2
  -8 | -9
Cc1cccc(C)c1Cn1c(C)c(C(=O)NCc2ccc(C(F)(F)F)cc2)sc1=O
  -1 | 1

Bioassay records deposited in PubChem by Fisher Drug Discovery Resource Center.
